YB-1 expr inh: YB-1 expression inhibition | U2OS, qRT-PCR YB-1 vs CDIP delta delta Cp, 16 h; active compounds read high; zero = DMSO, each unit about twofold | delta delta Cp (YB-1 minus CDIP) (test concentration not listed) | 0.37% of 30,000 active;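 active = delta delta Cp rounded down to an integer at or above 3, about 3 SD of DMSO wells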;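 note: higher means less YB-1 transcript or more CDIP transcript relative to DMSO; stock transfer was 100 nL into about 100 µL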
MITF inhib: inhibitors of MITF. TRPM1 promoter luciferase, luminescence, 24 h. inhibition, % (no concentration beside the values). 0.28% of 37,000 active. AID 2240;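 active = most replicates at 85% or more, or half of them and the mean; inconclusive = half reach 85% but not the mean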;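 note: human melanocyte line stably carrying TRPM1 promoter luciferase reporter; 0% = vehicle wells and 100% = a positive control; the first replicate is given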
Shh pathway inh: Sonic Hedgehog pathway inhibition; 2.1% of 22,000 active; AID 2313; inhibition, % (no concentration beside the values); Shh-LIGHT2 Gli-luciferase reporter, 30 h;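 active = replicate mean of 65% or more; inconclusive = mean lower but half the replicates past it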;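 note: pathway switched on by Shh-conditioned medium diluted 1 in 25 in low serum; 100 nL library stock added to about 40 µL; 0% = median of neutral wells and 100% = positive control level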
PD-1 reverse act: reversal of PD-1 mediated T-cell inhibition. AID 2316. primary human CD4 T cells, PD-L1 beads, CellTiter-Glo 96 h. activation, % (concentration not given with the values). 29,000 tested, under 10 active;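 active = replicate mean of 50% or more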;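 note: 0% = median vehicle wells and 100% = positive control; 100 nL library stock added to about 50 µL; numbers are from one replicate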
The depositor's hits bear a star; ? = inconclusive; . = not tested or not shown.

SMILES	YB-1 expr inh	MITF inhib	Shh pathway inh	PD-1 reverse act
C[C@H]1CN([C@@H](C)CO)C(=O)c2cc(NS(C)(=O)=O)ccc2O[C@H]1CN(C)CC1CCCCC1	-0.252	-2.7	-16.9	0.8
Cn1c(=O)c2[nH]c(NCCN3CCOCC3)nc2n(C)c1=O	.	-37.0	.	2.5
Cc1noc(C)c1NC(=O)N(C)C[C@@H]1Oc2ccc(NS(C)(=O)=O)cc2C(=O)N([C@H](C)CO)C[C@@H]1C	0.391	3.9	.	.
C=C(C)C1CCC2(C(=O)O)CCC3(C)C(CCC4C5(C)C(C=O)C(O)C(C)(C)C5CCC43C)C12 (stereo not drawn)	-0.384	.	-4.7	.
C[C@H]1CN([C@@H](C)CO)C(=O)Cc2cc(NS(=O)(=O)c3ccccc3)ccc2O[C@H]1CN(C)C(=O)Nc1ccc(F)cc1	-0.39	-14.7	10.7	.
Cc1ccc(S(=O)(=O)N(C)C[C@@H]2Oc3c(NC(=O)NC4CCCCC4)cccc3C(=O)N([C@H](C)CO)C[C@H]2C)cc1	0.101	17.5	-16.1	-1.3
COC1C=CC23c4cc5c(cc4CN(C[C@H]2O)[C@@H]3C1)OCO5 (stereo partly drawn)	0.122	54.4	50.6	.
Cc1ccccc1-c1nc(C#N)c(NCCN2CCOCC2)o1	.	-21.2	.	-0.5
COc1ccc(OC)c(C2C(C(=O)c3ccco3)C(=O)C(=O)N2CCN2CCOCC2)c1 (stereo not drawn)	.	-8.6	.	2.2
COc1ccc(C(=O)NCC(=O)Nc2cc(OC)ccc2OC)cc1	.	0.4	.	1.1
C[C@H]1CN([C@@H](C)CO)C(=O)c2cccc(NC(=O)Nc3ccc(C(F)(F)F)cc3)c2O[C@@H]1CN(C)C(=O)Nc1ccc(C(F)(F)F)cc1	0.347	0.0	-1.3	-3.3
O=C(CCN1C(=O)c2ccc([N+](=O)[O-])cc2C1=O)Nc1ccccc1I	.	-5.3	.	3.8
CC(C)NC(=O)Nc1ccc2c(c1)C(=O)N([C@H](C)CO)C[C@@H](C)[C@@H](CN(C)C(=O)Nc1cccc3ccccc13)O2	0.0611	0.4	-18.7	0.1
C[C@@H]1CN([C@H](C)CO)C(=O)c2cc(NS(=O)(=O)c3ccccc3)ccc2O[C@H]1CN(C)S(=O)(=O)c1ccc(F)cc1	-0.103	-0.6	-6.6	-2.0
C[C@H](CO)N1C[C@H](C)[C@H](CN(C)Cc2ccc(Oc3ccccc3)cc2)Oc2c(NC(=O)c3cnccn3)cccc2C1=O	1.03	-27.9	14.9	-2.0
COc1ccc(NC(=O)N(C)C[C@@H]2Oc3c(NC(=O)NC4CCCCC4)cccc3C(=O)N([C@H](C)CO)C[C@@H]2C)cc1	0.0114	2.7	31.6	-1.3
Cc1noc(C)c1NC(=O)N(C)C[C@@H]1Oc2ccc(NC(=O)Nc3cccc4ccccc34)cc2C(=O)N([C@H](C)CO)C[C@@H]1C	0.267	-5.3	6.5	-2.8
CC(C)NC(=O)N(C)C[C@H]1Oc2ccc(NC(=O)NC3CCCCC3)cc2CC(=O)N([C@@H](C)CO)C[C@H]1C	0.327	-13.0	-56.8	0.7
COc1ccc(S(=O)(=O)Nc2cccc3c2O[C@H](CN(C)Cc2ccc(Cl)c(Cl)c2)[C@@H](C)CN([C@H](C)CO)C3=O)cc1	-0.0351	-11.2	33.7	.
CCC1(CC)COC2(OC1)C(=O)Nc1ccc(F)cc12	-0.238	-4.5	25.0	-0.3
C[C@@H]1CN([C@@H](C)CO)C(=O)c2cccc(NC(=O)Nc3ccccc3)c2O[C@H]1CN(C)S(=O)(=O)c1cccs1	0.504	-10.0	-48.2	0.8
C[C@H](CO)N1C[C@H](C)[C@H](CN(C)C(=O)NC2CCCCC2)Oc2ccc(NS(=O)(=O)c3cn(C)cn3)cc2CC1=O	-0.133	-7.0	-23.2	2.2
Cc1ccc(S(=O)(=O)N(C)C[C@H]2Oc3c(NC(=O)Nc4ccc(C(F)(F)F)cc4)cccc3C(=O)N([C@H](C)CO)C[C@@H]2C)cc1	0.132	11.1	-14.7	.
C[C@H]1CN([C@@H](C)CO)C(=O)c2cccc(N(C)C)c2O[C@@H]1CN(C)C(=O)Nc1ccc2c(c1)OCO2	0.116	-6.3	-7.1	1.0
COc1cccc(NC(=O)C(C)N(c2ccc(C)c(C)c2)S(C)(=O)=O)c1 (stereo not drawn)	.	-25.6	.	-0.6
CN(CCOC(=O)c1ccc(Cl)cc1)c1ncc(C(F)(F)F)cc1Cl	-0.316	0.4	-24.7	2.3
COc1ccc(NC(=O)N(C)C[C@H]2OCCCC[C@@H](C)Oc3ccc(NC(=O)Cc4ccccc4)cc3C(=O)N([C@H](C)CO)C[C@@H]2C)cc1	0.226	-7.8	-1.9	0.9
C[C@@H]1CN([C@H](C)CO)C(=O)c2cccc(NC(=O)Nc3ccc4c(c3)OCO4)c2O[C@@H]1CN(C)Cc1ccc(Oc2ccccc2)cc1	0.0716	-2.2	-14.5	.
CC(C)(C)c1ccc(OCc2nnc(Sc3ccc([N+](=O)[O-])cn3)n2-c2ccccc2)cc1	.	39.2	.	-10.3
COc1ccc(S(=O)(=O)N(C)C[C@H]2Oc3c(NC(=O)C4CCOCC4)cccc3C(=O)N([C@@H](C)CO)C[C@@H]2C)cc1	0.106	1.1	16.2	.
CCOC(=O)c1ccccc1NC(=O)COc1ccc(C)cc1C(C)(C)C	.	17.6	.	-5.6
Cc1ccc(C(=O)CSc2nnc(N)s2)c(C)c1	.	-63.9	.	-2.5
COc1ccc(C(NC(=O)c2ccccc2)c2ccc3cccnc3c2O)c(OC)c1 (stereo not drawn)	.	?	.	-9.3
C[C@H](CO)N1C[C@H](C)[C@@H](CN(C)Cc2ccc3c(c2)OCO3)Oc2c(NS(=O)(=O)c3cn(C)cn3)cccc2C1=O	-0.305	-1.2	6.6	0.3
CCCN(C)C[C@@H]1OCCCC[C@@H](C)Oc2ccc(NC(=O)CCC(F)(F)F)cc2C(=O)N([C@H](C)CO)C[C@@H]1C	-0.524	3.7	.	0.3
Cc1ccc(NC(=O)Cn2cnc3sc(C(=O)Nc4ccccc4)c(C)c3c2=O)cc1	.	15.6	.	1.4
COc1ccc(S(=O)(=O)N(C)C[C@@H]2OCCCC[C@@H](C)Oc3ccc(N(C)C)cc3C(=O)N([C@H](C)CO)C[C@@H]2C)cc1	-0.0786	20.0	-11.4	-0.3
CCc1c(O)nc(SCC(=O)N(c2ccccc2)c2ccccc2)[nH]c1=O	.	-17.0	.	1.0
C[C@@H]1CN([C@H](C)CO)C(=O)c2cccc(NS(=O)(=O)c3cn(C)cn3)c2O[C@H]1CN(C)Cc1ccc(C(F)(F)F)cc1	-0.295	-13.7	3.5	1.3
C[C@H]1CN([C@@H](C)CO)C(=O)c2cc(NC(=O)NC3CCCCC3)ccc2O[C@@H]1CN(C)S(=O)(=O)c1ccccc1	0.159	5.1	-13.9	0.1
COc1ccc(NC(=O)N(C)C[C@@H]2Oc3ccc(NC(=O)Nc4c(C)noc4C)cc3CC(=O)N([C@H](C)CO)C[C@H]2C)cc1	0.0181	0.2	.	0.0
Cc1cc(C)c(S(=O)(=O)N(C)CC(=O)Nc2ccc3c(c2)OCCO3)c(C)c1	.	2.1	.	1.6
CCCCCC(O)c1cccc(OCc2ccc3ccccc3n2)c1 (stereo not drawn)	0.453	5.8	-71.8	5.5
Cc1noc(C)c1S(=O)(=O)Nc1ccc2c(c1)CC(=O)N([C@H](C)CO)C[C@@H](C)[C@H](CN(C)S(=O)(=O)c1ccc(F)cc1)O2	-0.11	-17.0	-41.5	-0.6
CC(=O)c1cccc(NC(=O)CSc2nc(-c3ccccc3)c(-c3ccccc3)o2)c1	.	34.6	.	-5.4
CCC(=O)Nc1ccc(Br)cc1-c1nnc(SC)[nH]c1=O	.	-2.2	.	3.5
C[C@H]1CN([C@@H](C)CO)C(=O)Cc2cc(NC(=O)CCN3CCOCC3)ccc2O[C@@H]1CN(C)Cc1ccc(C(F)(F)F)cc1	0.199	-1.1	10.7	.
Cc1cc(NS(=O)(=O)c2ccc(NC(=O)c3oc4cc(C)c(C)cc4c3C)cc2)nc(C)n1	.	-1.5	.	1.5
Cc1ccc(NC(=O)c2oc3ccccc3c2NC(=O)Cc2coc3ccc(C)cc23)cc1	.	-5.9	.	1.6
COc1ccc(S(=O)(=O)Nc2ccc3c(c2)C(=O)N([C@H](C)CO)C[C@@H](C)[C@H](CN(C)S(=O)(=O)c2ccc(Cl)cc2)O3)cc1	0.939	6.1	.	-0.6
CCOC(=O)c1cnc2c(OC)cccc2c1N1CC(C)CC(C)C1 (stereo not drawn)	-0.456	35.5	18.7	-4.6
C[C@H]1CN([C@@H](C)CO)C(=O)c2cccc(NC(=O)c3cnccn3)c2O[C@H]1CN(C)S(=O)(=O)c1ccc(Cl)cc1	0.0375	-40.7	8.1	1.7
C[C@@H]1CN([C@@H](C)CO)C(=O)Cc2cc(NS(=O)(=O)c3ccccc3)ccc2O[C@@H]1CN(C)Cc1ccc(C(F)(F)F)cc1	0.176	-14.5	-4.0	.
COc1ccc(NC(=O)N(C)C[C@@H]2Oc3c(NC(=O)Nc4cccc5ccccc45)cccc3C(=O)N([C@H](C)CO)C[C@H]2C)cc1	0.00323	8.1	-7.1	.
Cc1ccc(S(=O)(=O)N(C)C[C@@H]2Oc3ccc(NC(=O)Nc4ccc(F)cc4)cc3C(=O)N([C@H](C)CO)C[C@@H]2C)cc1	0.243	-19.7	.	-1.5
O=C(CSc1ncccn1)Nc1cccc2ccccc12	.	-29.6	.	0.8
Cc1noc(C)c1NC(=O)N(C)C[C@@H]1Oc2c(NC(=O)c3cnccn3)cccc2C(=O)N([C@H](C)CO)C[C@@H]1C	-0.0879	-5.6	10.5	.
C[C@@H]1CN([C@@H](C)CO)C(=O)c2cccc(NC(=O)c3ccncc3)c2O[C@@H]1CN(C)Cc1ccccc1	0.0303	3.3	-31.1	.
COc1ccc(-c2nnc3c4ccccc4c(C)nn23)cc1S(=O)(=O)N1CCCCC1	.	-6.3	.	-0.3
Cc1ccc(S(=O)(=O)Nc2ccc3c(c2)C(=O)N([C@H](C)CO)C[C@H](C)[C@H](CN(C)Cc2ccc(C(=O)Nc4ccccc4N)cc2)OCCCC[C@@H](C)O3)cc1	-0.485	1.7	.	-0.8

2 compounds drawn at random from the list so far, as already listed:
SMILES	YB-1 expr inh	MITF inhib	Shh pathway inh	PD-1 reverse act
Cc1noc(C)c1NC(=O)N(C)C[C@@H]1Oc2c(NC(=O)c3cnccn3)cccc2C(=O)N([C@H](C)CO)C[C@@H]1C	-0.0879	-5.6	10.5	.
Cc1ccc(S(=O)(=O)N(C)C[C@@H]2Oc3ccc(NC(=O)Nc4ccc(F)cc4)cc3C(=O)N([C@H](C)CO)C[C@@H]2C)cc1	0.243	-19.7	.	-1.5

More results.
SMILES	YB-1 expr inh	MITF inhib	Shh pathway inh	PD-1 reverse act
COC(=O)C(Cc1c[nH]c2ccccc12)NS(=O)(=O)c1ccc(CNC(=O)c2ccccc2)s1 (stereo not drawn)	0.322	11.3	1.4	-0.5
C[C@H]1CN([C@@H](C)CO)C(=O)Cc2cc(NC(=O)Cc3ccccc3)ccc2O[C@H]1CN(C)CC1CCCCC1	0.227	-3.9	.	0.8
C[C@@H]1CN([C@@H](C)CO)C(=O)c2cccc(NC(=O)C3CCCCC3)c2O[C@@H]1CN(C)Cc1ccc(C(=O)O)cc1	-0.222	-3.0	-18.1	.
C[C@H](CO)N1C[C@H](C)[C@@H](CN(C)C(=O)Nc2cccc3ccccc23)Oc2ccc(NS(=O)(=O)c3cccs3)cc2C1=O	-0.284	-4.1	.	3.4
COc1ccc(S(=O)(=O)N(C)C[C@@H]2OCCCC[C@@H](C)Oc3ccc(NS(=O)(=O)c4ccc(Cl)cc4)cc3C(=O)N([C@H](C)CO)C[C@@H]2C)cc1	-0.278	48.1	13.6	.
CNC[C@@H]1Oc2c(NC(=O)c3cnccn3)cccc2C(=O)N([C@@H](C)CO)C[C@H]1C	0.209	-8.3	-31.2	1.7
C[C@@H]1CCCCO[C@@H](CN(C)S(=O)(=O)c2ccccc2)[C@@H](C)CN([C@H](C)CO)C(=O)c2cc(NS(=O)(=O)c3ccc(F)cc3)ccc2O1	-0.263	27.2	.	-0.6
Cc1noc(C)c1NC(=O)Nc1ccc2c(c1)CC(=O)N([C@H](C)CO)C[C@@H](C)[C@H](CN(C)CC1CCCCC1)O2	0.204	1.1	17.7	2.5
COc1ccc(S(=O)(=O)Nc2cccc3c2O[C@@H](CN(C)Cc2ccc4c(c2)OCO4)[C@@H](C)CN([C@H](C)CO)C3=O)cc1	-0.00715	-5.0	9.8	0.5
CC(=O)c1ccc(NC(=O)CCn2cnc3ccccc3c2=O)cc1	.	-34.2	.	2.3
CC(C)NC(=O)N(C)C[C@@H]1Oc2ccc(N(C)C)cc2C(=O)N([C@H](C)CO)C[C@H]1C	-0.0812	7.1	-9.0	.
C[C@@H]1CCCCO[C@H](CN(C)C(=O)CCC(F)(F)F)[C@@H](C)CN([C@H](C)CO)C(=O)c2cc(NS(=O)(=O)c3cn(C)cn3)ccc2O1	0.0195	-18.1	-8.1	.
C=C(C(=O)O)[C@H]1C=C2[C@@H](C)[C@@H](O)[C@H](O)C[C@]2(C)CC1	0.382	4.0	6.6	0.6

Bioassay records as filed in PubChem.

This is a subset, so the mix of outcomes need not match the whole.
